High-throughput results: PubChem, several laboratories
T cruzi repl = T. cruzi replication inhibition. hit rate 1.4% among 300,000. T. cruzi beta-gal in NIH3T3, luminescence, 90 h. inhibition, % (no concentration beside the values);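 active = mean inhibition across valid replicates above about 55%, limit read from the data; inconclusive = mean below that limit but half or more replicates reach it; inactive = mean below it, under half of replicates reach it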;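 also: signal also drops with host cell toxicity which is not excluded here; 0% = plate median of DMSO wells and 100% = zero luminescence signal; higher percent means less beta-gal luminescence so fewer parasites; stock transfer was 50 nL into about 50 µL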
Beta2AR agonist = human beta-2 adrenergic receptor agonism by FAP. Am2.2-beta2AR cells, FAP receptor internalization, flow cytometry; reference of the scale not given here. response, % (concentration not given with the values). hit rate 0.43% among 340,000. AID 504454;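 active = response above a set limit, near 3 SD of response in nonfluorescent compounds, cut at about 42% in these data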;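 also: stock transfer was 100 nL into about 11 µL; a reference agonist was the positive control; negative values mostly stem from fluorescent compounds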
Target sequence (P07550 whole entry, looked up): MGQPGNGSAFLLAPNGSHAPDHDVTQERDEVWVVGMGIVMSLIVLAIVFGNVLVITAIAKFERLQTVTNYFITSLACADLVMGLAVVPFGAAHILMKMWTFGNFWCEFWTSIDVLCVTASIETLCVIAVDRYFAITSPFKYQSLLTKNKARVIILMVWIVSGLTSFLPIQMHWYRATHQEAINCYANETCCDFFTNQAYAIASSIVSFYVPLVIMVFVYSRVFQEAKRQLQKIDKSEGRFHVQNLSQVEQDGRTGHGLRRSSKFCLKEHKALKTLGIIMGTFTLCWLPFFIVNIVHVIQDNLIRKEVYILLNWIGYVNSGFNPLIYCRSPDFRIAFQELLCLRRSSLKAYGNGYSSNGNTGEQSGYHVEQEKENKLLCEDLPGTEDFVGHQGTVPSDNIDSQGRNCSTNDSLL
Calb FLC = affects C. albicans growth with fluconazole. AID 1979. C. albicans CaCi-2 (fluconazole-resistant clinical isolate) + fluconazole, Alamar Blue growth, 48 h. growth inhibition, % (test concentration not listed). hit rate 0.57% among 300,000;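 active = most replicates above 75%; inconclusive = exactly half above 75%; inactive = most below 75%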;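 also: all wells also contain fluconazole at 8 µg/ml as a sub-toxic cotreatment; 0% = median of DMSO wells and 100% = median of geldanamycin control wells; wells of about 8 µL received 7.5 nL stock; the first replicate is given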
UCH37 inh = human UCH37 deubiquitinating enzyme inhibition; hit rate 0.33% among 330,000; AID 588478; inhibition, % (no concentration beside the values); Q9Y5K5; purified proteasome/UCH37, Ub-AMC cleavage fluorescence;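 active = mean of two replicates above 20%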;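 also: 0% = compound-free wells with enzyme and 100% = wells lacking proteasome; stock transfer was 100 nL into about 20 µL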
Target sequence (Q9Y5K5 whole entry, looked up): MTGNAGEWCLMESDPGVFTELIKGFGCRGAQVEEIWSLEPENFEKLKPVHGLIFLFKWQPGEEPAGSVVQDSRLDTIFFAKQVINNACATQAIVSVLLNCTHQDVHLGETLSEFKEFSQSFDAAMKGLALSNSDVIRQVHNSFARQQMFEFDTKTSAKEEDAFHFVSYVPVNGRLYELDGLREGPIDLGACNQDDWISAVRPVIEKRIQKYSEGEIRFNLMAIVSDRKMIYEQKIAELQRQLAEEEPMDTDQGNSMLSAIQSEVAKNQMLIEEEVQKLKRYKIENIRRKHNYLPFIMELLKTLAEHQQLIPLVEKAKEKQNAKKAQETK
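Material: Human UCH37 enzyme supplied as purified proteasome complex | Schedule: 30 min compound-proteasome preincubation then 25 min substrate reaction, room temperature | Detection: AMC fluorescence from Ub-AMC cleavage, excitation 355 nm, emission 460 nm | Benchmarks: Wells without proteasome as full block, compound-free enzyme plus substrate as uninhibited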
Beta apoptosis = beta cell apoptosis inhibition; INS-1E cytokine-induced death, ATP luminescence, 48 h; percent of positive-control rescue, neutral wells zero; protection from apoptosis, % (no concentration beside the values); hit rate 0.8% among 300,000; AID 435005;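 active = all replicates at 75% or more, or half of them and the mean; inconclusive = half reach 75% but not the mean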;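 also: 0% = cytokine-treated negative control wells and 100% = positive control rescue; higher means more ATP so stronger rescue from cytokine killing; wells of about 40 µL received 100 nL stock; the first replicate is given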
A1 inh = inhibitors of the anti-apoptotic protein A1, read as caspase activation; MEF A1-2A-BIM cells, Caspase-Glo 3/7 luminescence, 3 h; percent of clofoctol response, vehicle zero; hit rate 0.066% among 330,000; caspase activation, % (concentration not given with the values);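 active = over half of replicate activation scores above 10%, or exactly half above 10 with the replicate mean above 10; inconclusive = replicate mean below 10 yet half the replicates above 10; inactive = over half of replicates below 10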;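 also: wells of about 30 µL received 50 nL stock; many hits fall short of the cut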
LANA-H2A inh = blocks KSHV LANA binding to histone H2A/H2B; hit rate 0.6% among 320,000; cell-free LANA-H2A/H2B peptide, fluorescence polarization; Q9QR71; inhibition, % (no concentration beside the values); in the data active = inhibition mostly above about 10%, no sharp cut-off; inactive = mostly below about 6.7%;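 also: stock transfer was 7.5 nL into about 10 µL; 0% = median of vehicle wells and 100% = median of positive control wells; one replicate is shown; the record names a cut of 25% in any replicate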
RanGTP-Impb inh = disruptors of Ran-importin-beta complex formation – biochemical, FRET, CFP-Ran, YFP-importin-beta, homogeneous, primary screen. cell-free CFP-Ran/YFP-importin-beta FRET ratio. inhibition, % (concentration not given with the values). hit rate 1.1% among 300,000. AID 2216;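 active = most replicates above 15%; inconclusive = exactly half above 15%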;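 also: 0% = DMSO wells and 100% = Ran loaded with GDP instead of GTP; wells of about 40 µL received 100 nL stock; the first replicate is given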
Starred values were filed as active, the others as inactive; ? = inconclusive; . = not tested or not shown.

SMILES | T cruzi repl | Beta2AR agonist | Calb FLC | UCH37 inh | Beta apoptosis | A1 inh | LANA-H2A inh | RanGTP-Impb inh
CCn1c(Cc2ccccc2)nnc1SCC(=O)Nc1ccc(C)cc1 | 9.7 | 1.1 | -24.5 | 7.2 | -1.1 | 0.9 | 2.9 | 8.2
CCOC(=O)c1cc(-c2ccc(Cl)s2)nc2c1c(C)nn2C | 13.6 | . | -0.8 | -52.2 | . | . | . | 0.9
COC(=O)c1c(NC(=O)CSc2ncnc3ccccc23)sc(C)c1C | 6.8 | 5.1 | -0.2 | -0.4 | -0.7 | 0.1 | -1.8 | -0.8
CNC(=O)/C=C/c1cc(C(=O)c2ccc(Cl)cc2Cl)cn1C | 2.3 | -4.2 | 7.2 | 9.2 | -2.2 | -0.5 | 0.8 | -5.0
O=C(COC(=O)CCS(=O)(=O)c1ccccc1)Nc1ccccc1 | . | -7.9 | . | . | -3.3 | -0.1 | 0.9 | .
O=C1NCCN1C(=O)c1ccccc1F | -5.7 | -4.1 | -10.5 | 4.1 | -9.3 | 1.6 | 0.1 | -1.6
C=CCc1cccc(/C=C/c2cc(=O)c3ccccc3[nH]2)c1O | -17.3 | -1.4 | -5.5 | 0.3 | 15.9 | -0.8 | 4.5 | -3.3
C=CCNC(=O)c1cccc(OC2CCN(CC(C)(C)C)CC2)c1 | 5.4 | -1.3 | -11.8 | 3.2 | -5.3 | 0.4 | -1.0 | 18.5*
Cn1nnnc1Sc1ncnc2scc(-c3cccc4c3sc3ccccc34)c12 | . | 10.7 | . | 4.5 | 2.9 | ? | 1.8 | .
CCN(CC(=O)Nc1ccc(C(C)=O)cc1)CC(=O)Nc1cccc(OC)c1 | -7.5 | -2.7 | -15.7 | 4.3 | 0.3 | 0.0 | -2.6 | 2.9
CC(C)[C@H](NC(=O)[C@H](CCCN=C(N)N)NC(=O)NC(Cc1ccccc1)C(=O)O)C(=O)NC(C=O)CCCN=C(N)N (stereo partly specified) | -3.1 | -3.9 | . | 0.7 | -12.2 | ? | 0.9 | -2.7
Clc1ccc(C2[C@H]3CN(CC4CCCCC4)[C@H](c4ccccc4)C34CC2(c2ccccc2)C4)cn1 (stereo partly specified) | 1.3 | -0.1 | 27.3 | 3.2 | -4.2 | 0.0 | -1.5 | 1.4
CCN(CC)CCNC(=O)/C(=C/c1cn(C)c2ccccc12)NC(=O)c1ccc(OC)c(OC)c1 | 1.3 | 2.2 | 8.7 | 14.2 | -6.6 | 1.4 | 2.7 | 2.3
COc1ccc(-n2ncc3c(=O)n(CC(=O)N4CCCc5ccccc54)cnc32)cc1 | 3.3 | -6.1 | -18.2 | -3.1 | 4.8 | 0.3 | -0.4 | .
Cc1sc(NC(=O)CSc2nnnn2C2CCCCC2)c(C#N)c1C | -2.8 | -9.0 | 0.5 | 3.8 | -4.1 | -0.6 | 4.3 | ?
COc1nc(N)c(S(=O)(=O)c2ccc(C)cc2)cc1C#N | -13.0 | 18.7 | 20.9 | -4.3 | 2.3 | -0.1 | 7.6 | 5.1
Cc1nnc(SCC(=O)N(C(C)C)C(C)C)[nH]c1=O | -9.1 | 0.8 | 7.9 | 2.3 | -2.9 | -0.6 | -4.4 | 3.3
CCN(CC(=O)Nc1ccc(NC(C)=O)cc1)C(=O)/C=C/c1c(C)nn(-c2ccc(F)cc2)c1C | -0.7 | -5.2 | -0.2 | 5.3 | . | -0.1 | 2.8 | 3.2
CCCS(=O)(=O)N1CCC(C(=O)NCc2cccnc2)CC1 | -14.6 | -3.9 | -2.5 | -3.4 | -7.4 | 0.5 | 3.2 | -3.5
O=C(NCCC1=CCCCC1)c1cc2ccccc2oc1=O | -9.3 | -22.4 | -4.2 | -2.2 | -1.1 | -1.4 | -1.4 | 1.8
O=C1CC2(CCN(C(=O)C3CC(=O)N(c4ccccc4)C3)CC2)Oc2ccccc21 (stereo unspecified) | 10.5 | 1.8 | 0.7 | -27.2 | -2.5 | -0.7 | 0.2 | 3.5
O=C(COC(=O)C1=COCCO1)NC1CCCCC1 | -8.3 | 0.5 | 4.4 | 0.0 | -3.3 | -0.3 | -1.4 | 1.5
CCc1nnc(NC(=O)CCN(c2cc(C)cc(C)c2)S(=O)(=O)c2ccc(Cl)cc2)s1 | -2.7 | -2.7 | 8.4 | 2.2 | -4.6 | 0.1 | 3.5 | -2.8
COC(=O)c1c(NC(=O)CCC(=O)O)sc2c1CCCCC2 | -4.5 | 2.4 | 8.6 | 2.0 | -0.1 | 0.7 | -0.7 | 0.0
CCn1c(CNC(=O)c2ccccc2F)cc2ccccc21 | -6.4 | 4.0 | -1.1 | 3.2 | -8.7 | -0.4 | 9.6 | 0.5
O=C(CCl)N1CCN2C(=O)c3ccccc3C12c1ccc(Cl)cc1 (stereo unspecified) | 18.8 | 14.6 | -14.1 | 5.3 | 12.9 | -0.5 | -2.2 | 1.5
CSc1ccc(CN2CCCN(C)CC2)cc1 | 16.9 | 2.8 | -5.7 | 4.6 | -3.0 | 1.2 | 7.6 | -0.6
CCc1nn(CC(=O)Nc2cc(C)ccc2C)c(=N)s1 | -10.7 | -3.0 | -17.3 | 0.3 | 7.0 | 0.4 | -0.9 | -3.1
CN1CCN(c2ccc(CNS(=O)(=O)c3ccc(Cl)cc3)cc2)CC1 | 35.1 | -3.8 | -13.7 | 2.2 | -0.1 | 0.1 | -6.2 | 3.2
COc1ccc(S(=O)(=O)N2CCOC23CCN(S(=O)(=O)c2cc(C)ccc2C)CC3)cc1 | 13.0 | 4.1 | -0.6 | 2.4 | . | -0.2 | -2.1 | -0.4
CC(C)C(NC(=O)CN(c1cccc(F)c1)S(C)(=O)=O)C(C)C | -23.1 | -3.9 | -11.7 | 2.3 | -0.4 | -0.4 | -1.6 | -1.2
O=C(C1CCC(=O)N1Cc1cccs1)N1CCOCC1 (stereo unspecified) | -11.2 | 5.3 | 14.3 | -1.0 | -10.9 | 0.3 | 1.0 | 3.6
COc1ccc(/C=C/C(=O)Nc2ccc(NC(C)=O)cc2)cc1S(=O)(=O)N1CCOCC1 | -15.8 | -17.1 | 4.0 | 5.9 | -1.8 | 0.3 | -4.1 | ?
CC1CCCCC1n1c(=S)[nH]c2ccccc2c1=O (stereo unspecified) | -44.3 | 1.4 | -0.2 | -0.5 | 5.7 | -1.0 | 4.3 | 7.2
Cc1ccccc1[C@@H]1C(C#N)=C(N)S[C@H]1C(=O)c1ccccc1 | 8.5 | 0.4 | 44.7 | 3.0 | -3.0 | 0.1 | -2.0 | -0.7
CN(c1ccccc1C(=O)NCc1ccccc1Cl)S(=O)(=O)c1ccccc1 | 1.0 | -6.1 | -0.6 | 3.8 | -5.0 | -0.1 | -2.7 | ?
CC1CCCC(C)N1/N=C/c1cccc(Br)c1 (stereo unspecified) | 0.4 | -0.2 | 2.7 | . | -2.1 | 0.0 | 2.1 | 2.1
NC(=S)N/N=C/c1cc([N+](=O)[O-])ccc1OCCOc1ccccc1 | 13.3 | 6.3 | 5.6 | . | 3.4 | 1.2 | 4.9 | 0.8
COc1ccccc1C(CCNCc1ccccc1)c1ccc(OC(C)C)cc1 (stereo unspecified) | 31.2 | 25.4 | -1.5 | 1.2 | 23.5 | 1.7 | -4.6 | 2.3
Cc1ccc(OCC(=O)NCCCNC(=O)c2ccccn2)cc1C | 9.8 | -2.5 | -7.1 | -1.5 | . | -0.4 | -8.9 | -1.1
O=C(NC1CCCC1)C1CCN(C(=O)c2cccc(Cl)c2)CC1 | 5.4 | -7.4 | 22.2 | -0.4 | 5.4 | 0.4 | 4.0 | -1.6
O=S(=O)(O)c1cc(OS(=O)(=O)c2ccccc2)cc2ccccc12 | -11.2 | 4.2 | -6.7 | 2.5 | -1.4 | 0.5 | -2.6 | 2.8
CCC(C(=O)NC1CCCC1)N(C(=O)Cn1nnc(-c2ccc(C)cc2)n1)C1CCCC1 (stereo unspecified) | 18.8 | -19.3 | 1.1 | 0.6 | 1.3 | 1.9 | 1.4 | -0.3
Cc1cc(S(=O)(=O)n2cnc3ccccc32)c(C)cc1Cl | -0.5 | 2.8 | 7.4 | 1.6 | . | 0.2 | -5.3 | 2.3
Cc1ccc(C)c(NS(=O)(=O)c2ccccc2C)c1 | . | 3.7 | -38.3 | . | -0.6 | -0.5 | -0.2 | .
C[C@H](NC(=O)c1nc[nH]c1C(=O)N[C@@H](CCCCNC(=O)OC(C)(C)C)C(=O)OC(C)(C)C)C(=O)OCc1ccccc1 | -6.6 | -9.2 | 2.6 | -0.2 | 2.2 | -0.8 | 4.0 | 0.2
CCCN(C(=O)C1CC(=O)N(c2ccccc2C(C)CC)C1)C1CCS(=O)(=O)C1 (stereo unspecified) | . | -15.7 | . | 4.4 | -1.5 | 0.4 | 3.2 | .
COc1cc(SC)ccc1C(=O)OCC(=O)NC1CC1 | -12.9 | 3.1 | 98.3* | 3.6 | . | 0.1 | -3.9 | -5.3
C#CCSc1nc2[nH]ncc2c(=O)[nH]1 | -23.9 | -2.9 | 27.7 | 2.6 | -5.8 | 0.0 | -3.0 | -1.0
Cc1cc(N2CCN(C3CCCCC3)CC2)n2nc(C)nc2n1 | 4.4 | 2.6 | 11.2 | 5.2 | -7.5 | -0.6 | 1.8 | 1.2
Cc1nn(C)cc1CNC(=O)c1ccc(Br)o1 | -30.2 | -2.8 | 12.1 | -1.2 | -3.8 | 0.7 | -4.8 | 5.5
C/C(=N/NC(=O)c1cccc(C)c1)c1c(O)cc(C)oc1=O | -4.4 | -1.0 | -14.3 | . | -2.6 | -10.8 | 0.7 | 1.9
COC(=O)c1scc(C)c1S(=O)(=O)Nc1ccc(C)cc1 | -2.9 | 3.3 | -3.6 | 1.8 | -1.8 | 0.7 | -6.2 | 3.7
Cc1cc(C)c(S(=O)(=O)N(C)CC(=O)NCCCn2ccnc2)c(C)c1 | 4.1 | -0.9 | -4.4 | 2.4 | -2.2 | 0.1 | 5.4 | -3.2
C/C(=N\NC(=O)CN1CCN(S(=O)(=O)c2ccc(C)cc2)CC1)c1ccncc1 | 9.0 | 3.8 | 1.3 | . | -2.8 | 0.9 | 1.7 | -0.3
O=C(CN1CCC(n2nnc3cc(F)ccc32)CC1)NC1CC1 | -13.2 | 2.3 | 6.2 | 2.0 | . | 0.0 | 0.3 | -0.2
CC(C)CCn1cnc2c(NCc3ccccc3)ncnc21 | 2.2 | -15.1 | ? | 4.2 | 1.9 | 0.4 | -1.1 | ?
COCCN(Cc1ccccc1)C(=O)C1CCN(S(=O)(=O)c2ccc3c(c2)OCCO3)CC1 | . | -5.8 | . | 3.2 | -4.7 | 0.5 | 6.7 | .
CS(=O)(=O)c1ccc(C(=O)N(CCc2ccccc2)Cc2ccccc2)cc1 | 11.9 | -1.7 | -10.7 | 4.3 | -0.6 | 0.4 | -22.2 | 0.4
Cc1ccc2c(C)c(C(=O)N3CCN(Cc4ccc5c(c4)OCO5)CC3)oc2c1C | 15.2 | -0.2 | -22.6 | -0.1 | -1.4 | -1.0 | 1.5 | 1.3
